# Source: PubChem (National Center for Advancing Translational Sciences (NCATS))
# Cruzain inh Det: qHTS Assay for Promiscuous and Specific Inhibitors of Cruzain (with detergent) | 200,000 tested, 0.43% active | Cruzipain (Trypanosoma cruzi), P25779 | AID 1478, 2009 | Potency, µM, without a hit: max response, negative = inhibition, hits mostly inhibitors | purified cruzain, Z-FR-AMC fluorescence, 0.01% Triton;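 also: plate controls were neutral wells for no effect and buffer without enzyme for full effect; nearly all actives have a fitted effect of over 40% in size; top concentration of the series not given in the record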
# Target sequence (P25779 123-467 limits assumed): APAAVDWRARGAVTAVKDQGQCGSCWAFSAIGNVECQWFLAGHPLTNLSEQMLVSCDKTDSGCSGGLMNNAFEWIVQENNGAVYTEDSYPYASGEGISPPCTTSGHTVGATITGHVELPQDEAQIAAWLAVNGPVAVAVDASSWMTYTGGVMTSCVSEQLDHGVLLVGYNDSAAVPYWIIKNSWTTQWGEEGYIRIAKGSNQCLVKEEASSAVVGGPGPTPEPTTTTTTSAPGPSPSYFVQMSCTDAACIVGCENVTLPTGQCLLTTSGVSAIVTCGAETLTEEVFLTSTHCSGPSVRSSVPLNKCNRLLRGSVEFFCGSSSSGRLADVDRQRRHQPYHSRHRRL
#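 Cysteine protease activity tested under reducing, mildly acidic conditions (100 mM sodium acetate pH 5.5, 5 mM DTT) plus 0.01% Triton X-100. Cruzain 1.5 nM; substrate Z-FR-AMC 2 uM; 15 min compound preincubation at room temperature.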
# Lassa entry inh: qHTS for Inhibitors of binding or entry into cells for Lassa Virus; Lassa virus pseudotype entry inhibition, cell reporter; control for the full effect not named in the record; AID 540256, 2011; 300,000 tested, 1.2% active; Potency, µM (series often up to 37.9 µM), for inactives: at the top dose activity change, negative = inhibition, hits mostly inhibitors; active means well fitted inhibition curve with a large enough effect; inconclusive means small, poorly fitted or top-dose-only effect, or effect the other way; inactive means flat fitted curve, though single readings scatter; tested in HEK293 cells; also: % is scaled to controls: 0 for no effect and ±100 for the full control effect; nearly all actives have a fitted effect of over 50% in size; luciferase read-out
# MARV entry inh: qHTS for inhibitors of binding or entry into cells for Marburg Virus; Potency, µM (doses to about 37.8 µM), without a hit: at the top dose activity change, negative = inhibition, actives largely listed as inhibitors; 300,000 tested, 1.8% active; AID 540276, 2011; Marburg virus pseudotyped entry inhibition, cell reporter; control for the full effect not named in the record; about a third of the inactives were read at about 46 µM; active = well fitted inhibition curve with a large enough effect; inconclusive = small, poorly fitted or top-dose-only effect, or effect the other way; inactive = flat fitted curve, though single readings scatter; tested in HEK293 cells; about a fifth of its hits are not listed in these tables; also: % is scaled to controls: 0 for no effect and ±100 for the full control effect; luciferase read-out
# RE007 growth inh: qHTS Assay for Inhibitors of the HIV-1 protein Vpr. S. pombe RE007 Vpr strain, BacTiter-Glo ATP luminescence, 24 h; control for the full effect not named in the record. Potency, µM (highest dose often 92.2 µM), for the others: at the highest dose activity change, negative = less growth. 360,000 tested, 0.21% active; active = well fitted falling curve with a large enough effect; inconclusive = small, poorly fitted or top-dose-only effect; inactive = no such curve, though single readings can be large or run the other way;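 also: % is scaled to controls: 0 for no effect and ±100 for the full control effect; nearly all actives have a fitted effect of over 50% in size; the assay follows cell death caused by Vpr and the record does not say whether a fall means rescue or toxicity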
#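 Fission yeast strain RE007, carrying one chromosomally integrated HIV-1 vpr copy, was seeded at OD 0.01 in PMG+AL medium with 23 nL pinned compound. After 24 h at 30 °C and 99% humidity, viability was read by BacTiter-Glo luminescence.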
# StopGo reporter: High Throughput Screening for Foot and Mouth Disease Virus Antivirals; human cells with a luciferase reporter of 2A StopGo recoding; control for the full effect not named in the record; Potency, µM (titrated, usually from 57.9 µM), for the others: top-dose signal change, negative = less light; 410,000 tested, 1.2% active; active = well fitted falling curve with a large enough effect; inconclusive = small, poorly fitted or top-dose-only effect; inactive = no such curve, though single readings can be large or run the other way; tested in HEK293T cells; also: % is scaled to controls: 0 for no effect and ±100 for the full control effect; nearly all actives have a fitted effect of over 45% in size; luciferase light after 4 h
# SARS PLpro yeast: qHTS of Yeast-based Assay for SARS-CoV PLP; S. cerevisiae expressing SARS-CoV PLpro, growth rescue; control for the full effect not named in the record; Potency, µM (titrated, usually from 32.9 µM), inactives show at the top dose activity, positive = growth rescue; 330,000 tested, 0.19% active; active means well fitted rising curve with a large enough effect; inconclusive means small, poorly fitted or top-dose-only effect; inactive means no such curve, though single readings can be large or run the other way; also: 0% is about no effect; nearly all actives have a fitted effect of over 55% in size; growth read by luminescence after 48 h
# Cruzain inh noDet: qHTS Assay for Promiscuous and Specific Inhibitors of Cruzain (without detergent); Cruzipain (Trypanosoma cruzi), P25779; purified cruzain, Z-FR-AMC fluorescence, no detergent; Potency, µM, inactives show max response, negative = inhibition, actives largely listed as inhibitors; 200,000 tested, 2.3% active; AID 1476, 2009;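 also: plate controls were enzyme without inhibitor for no effect and buffer without enzyme for full effect; nearly all actives have a fitted effect of over 40% in size; top concentration of the series not given in the record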
#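 Purified cruzain at 1.5 nM, pre-incubated 15 min with compound at room temperature in 100 mM sodium acetate pH 5.5, 5 mM DTT, 0.00005% Triton X-100. Reaction started with 2 uM Z-FR-AMC; AMC fluorescence increase over 60 s gives rate.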
# NS1 inh: qHTS Assay for Inhibitors of Influenza NS1 Protein Function; 270,000 tested, 0.4% active; Potency, µM (doses to about 46.1 µM), for the others: top-dose activity, positive = more growth; S. cerevisiae slowed by influenza A NS1, growth recovery by OD600; active means well fitted rising curve with a large enough effect; inconclusive means small, poorly fitted or top-dose-only effect; inactive means no such curve, though single readings can be large or run the other way; also: nearly all actives have a fitted effect of over 50% in size
#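 S. cerevisiae expressing influenza A NS1, grown in glucose, washed, then diluted 1:100 into pH 6.0 -URA galactose medium with 23 nl compound. Growth recovery read as OD600; NS1-free strain serves as control.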
# An asterisk follows results filed as active; ? = inconclusive; · = not tested or not shown; & = joins results of further samples; [ ] = remark or other dose. Unless noted, calls follow the shape of the dose curve; as a rule, active = well fitted curve in the direction sought with a large enough effect; inconclusive = small, poorly fitted or top-dose-only effect, or another doubt; inactive = no such curve, though single readings can be large; an effect the other way counts as inactive or inconclusive. Potency is read from the fitted curve at half-maximal effect.
SMILES,Cruzain inh Det,Lassa entry inh,MARV entry inh,RE007 growth inh,StopGo reporter,SARS PLpro yeast,Cruzain inh noDet,NS1 inh
Cn1c(NC(=O)C[n+]2cc(-c3ccc(Cl)c(Cl)c3)n3c2CCC3)cc(=O)n(C)c1=O,-3.4%,7%,?,32µM*,-19%,9%,-5%,19%
Cc1ccc(NC(=O)C2CC(=O)N(Cc3ccco3)C2)cc1 (stereo not given),·,-10%,0%,10%,7%,4%,·,-2%
CCCCS(=O)(=O)NC1=NCN(CC)CN1,7.4%,2%,11%,-2%,13%,-1%,2%,2%
CCOC(=O)C(C)Oc1cc(Cl)c(C=O)cc1OC (stereo not given),·,1%[46.1 µM],-11%[46.1 µM],2%,-16%,-1%,·,7%
COC(=O)c1cc(S(=O)(=O)NCC2CCN(Cc3cccc(F)c3)CC2)cn1C,3.4%,-1%[46.1 µM],·,-10%,-1%&-8%,30%,-15%,-3%
COc1cc2c(cc1OC)CN(CC(=O)Nc1ccc(C)cc1)CC2,3.9%,1%,?,8%,-7%,16%,4%,-1%
CC(C)CNS(=O)(=O)c1cc(C(=O)N2CC(C)OC(C)C2)c(Cl)cc1Cl (stereo not given),4.1%,0%,-5%,11%,·,3%,4%,11%
O=C(NC(=S)Nn1cnnc1)c1cccc(Br)c1,-5.2%,6%,3%,-18%,2%,0%,-14%,?
CC(C)c1nc(CNC(=O)c2ccc(OC3CCN(Cc4ccccn4)CC3)cc2)cs1,·,-14%[46.1 µM],?,-10%,-4%,1%,·,-2%
CC(C)C(=O)Nc1nc(-c2ccc(S(=O)(=O)N3CCOCC3)cc2)cs1,·,-21%,17%,13%,-24%,6%,·,2%
O=C(CN1CCN(C(=O)c2ccccc2)CC1)Nc1ccccc1,·,11%[46.1 µM],2%[46.1 µM],-6%,20%,4%,·,14%
COC(=O)c1ccc(COC(=O)c2ccc(S(=O)(=O)N3CCC(C)CC3)cc2)o1,1.3%,15%,?,12%,-8%,-3%,?,2%
CCC1=C(OC(=O)N(CC)CC)N2C(=O)OC(=NCCOC)[C@]2(Cc2ccccc2)[C@H]2C1=CC[C@H]1C(=O)N(CC(=O)OC)C(=O)[C@H]12,2.5%,·,·,-15%,25%,2%,?,-1%
Cc1sc2nc(CN3CCOCC3)nc(NS(=O)(=O)c3ccccc3)c2c1C,1.7%,5%,9%[46.1 µM],1%,-9%,-7%,37%,-7%
COc1ccc(Cc2nnc(SCc3c(C)noc3C)n2C2CCCCC2)cc1OC,-4.2%,1%,?,1%,43%[activator],6%,-10%,-3%
COC(=O)N/N=C\c1ccc(-c2cc(Cl)c(Cl)cc2Cl)o1,-4.2%,-1%,?,-18%,-23%,1%,?,13%
Cc1nn(C)cc1-c1n[nH]c(=S)n1-c1ccc(F)cc1,-1.1%,30%,?,-1%,-17%,3%,10%,7%
Cc1ccc(S(=O)(=O)C2(C(=O)O)CCCC2)cc1C,1.1%,?,-3%,-1%,·,-2%,?,4%
Cc1oc(C(C)(C)C)cc1C(=O)Nc1ccc2c(c1)OCCO2,-10%,-4%,-12%,-6%,-15%,·,11%,-52%
Cc1ccc(CCCOC(=O)C[N+]2(C)CCCC2)cc1,-1.9%,0%,?,1%,-9%,-10%,-2%,-1%
CSc1nc2sc3c(c2c(=O)n1C1CCCCC1)CCN(C)C3,-1.3%,11%,19%&19%[46.1 µM],-10%,-14%,-3%,-5%,-1%
O=C(CSc1cc(Cl)ccc1Cl)NC1CCCC1,·,9%[46.1 µM],?,2%,-2%,-2%,·,-17%
COc1cccc(CN(CC(=O)NCC2CCCO2)C(=O)CCC(=O)Nc2cc(C)on2)c1 (stereo not given),4.9%,14%,0%,-7%,5%,-2%,12%,-9%
CCOC(=O)CSc1nc2cc3c(cc2c(=O)n1CCCCCC(=O)NCc1ccc(OC)cc1)OCO3,1.8%,4%[46.1 µM],·,·,-9%,·,5%,·
CCOc1ccc(C(=O)CSc2nnc(N)s2)cc1,-5.8%,4%,11%,-5%,50%[activator],2%,25µM*,-5%
# Next section
SMILES,Cruzain inh Det,Lassa entry inh,MARV entry inh,RE007 growth inh,StopGo reporter,SARS PLpro yeast,Cruzain inh noDet,NS1 inh
COc1cccc(CN(C)CC(O)COC(c2ccccc2)c2ccccc2C)c1 (stereo not given),·,?,?,-1%,?,1%,·,3%
COc1ccc2ccccc2c1/C=N/n1cnnc1,·,·,·,27%,-2%,-1%,·,-17%
CCOC(=O)c1c(C)[nH]c(C)c1S(=O)(=O)N1CCN(c2ccccc2OC)CC1,-2.2%,-3%[46.1 µM],·,·,20%,·,10%,·
COc1ccc(CNCCCNCc2ccc(OC)c(OC)c2)cc1OC,·,?,?,3%,9%,·,·,·
CCn1cc(C(=O)NCC2COc3ccccc3O2)c2cc(OC)c(OC)cc2c1=O (stereo not given),-3.1%,-4%,0%&0%,-3%,-14%,-7%,?,-13%
O=C(NCc1cccnc1)C(=O)Nc1nc2ccccc2s1,·,-3%,-16%[46.1 µM],17%,54%[activator],4%,·,·
CCOC(=O)CNC(=O)CSc1nc2sc(C)c(C)c2c(=O)n1C,-4.6%,-5%,-8%,1%,6%,-12%,11%,-3%
COc1ccc(-c2cc(C(F)(F)F)nc(NCc3ccccc3)n2)cc1,-10.0%,15%[46.1 µM],-14%[46.1 µM],·,-27%,·,-28%,·
CC1C(=O)Nc2ccccc2N1C(=O)c1ccc(F)cc1F (stereo not given),·,·,·,-5%,-13%,-2%,·,3%
O=C(/C=C/c1ccco1)Nc1sc2c(c1C(=O)O)CCC2,-12%,?,?,-26%,6%,-21%,-17%,-174%
CCOC(=O)c1ccc(-c2c(C(=O)OCC)oc3cc(O)c(CC)cc3c2=O)o1,-2.4%,-1%,?,8%,?,-4%,-11%,?
CCOC(=O)c1[nH]c2cc(OC)c(OC)cc2c1NC(=O)c1ccc2c(c1)OCO2,-4.0%,-11%,-7%,13%,3%,-5%,5%,0%
CC(C)OCCCNc1nc2c(cnn2C)c(=O)[nH]1,·,21%,-18%,-11%,-9%,·,·,·
COc1ccc(OCC(=O)Nc2ccc3c(c2)n(C)c(=O)n3C)cc1,·,·,·,-4%,-6%,0%,·,-6%
NC(=O)c1nsc(C(=O)N(Cc2ccccc2F)C(C(=O)NCC2CCCO2)c2ccc(F)cc2)c1N (stereo not given),·,?,?,6%,-1%,-1%,·,16%
CCCC(=O)N1CCN(c2nc3c(OC)ccc(C)c3s2)CC1,-1.2%,-2%[46.1 µM],·,·,2%,·,6%,·
Cc1cc(C(=O)Nc2cc(C(C)(C)C)on2)c(C)o1,·,·,·,9%,71%[activator],0%,·,3%
CCOC(=O)c1c(-c2cccs2)csc1NC(=O)CNCCN1CCOCC1,2.3%,·,0%,·,·,2%,7%,1%
CCOC(=O)C1CCCN(Cc2cc(=O)oc3cc(C)ccc23)C1 (stereo not given),·,·,2%[46.1 µM],0%,21%,-7%,·,-8%
O=C(C1CCC(=O)N(C2CCCC2)C1)N1CCN(c2ccccc2Cl)CC1 (stereo not given),·,·,·,-3%,-12%,-6%,·,0%
Cc1cccc(C(=O)Nc2cc(=O)n(C)c(=O)n2C)c1,-2.1%,5%,9%,0%,-4%,11%,13%,1%
C[C@@H]1NC(=O)/C(=C\c2ccccc2Cl)NC1=O,·,-2%,-3%,1%,-9%,1%,·,-4%
COc1cc(NC(=O)c2ccccc2-c2ccccc2)cc(OC)c1,-4.6%,14%,?,2%,-25%,0%,-13%,-24%
CC(=O)NCCN1C(=O)C2C3c4ccccc4C(c4ccccc43)C2C1=O (stereo not given),6.1%,13%,0%,12%,-29%,-2%,5%,2%
Cc1cc(C)c2nc(SCC(=O)Nc3ccc(S(=O)(=O)N4CCCC4)cc3)c(C)cc2c1,-8.4%,18%,6%,-3%[3.69 µM],0%,10%,13µM*,-5%

# 6 neighbouring entries out of the list so far, for reference:
SMILES,Cruzain inh Det,Lassa entry inh,MARV entry inh,RE007 growth inh,StopGo reporter,SARS PLpro yeast,Cruzain inh noDet,NS1 inh
O=C(C1CCC(=O)N(C2CCCC2)C1)N1CCN(c2ccccc2Cl)CC1 (stereo not given),·,·,·,-3%,-12%,-6%,·,0%
Cc1cccc(C(=O)Nc2cc(=O)n(C)c(=O)n2C)c1,-2.1%,5%,9%,0%,-4%,11%,13%,1%
C[C@@H]1NC(=O)/C(=C\c2ccccc2Cl)NC1=O,·,-2%,-3%,1%,-9%,1%,·,-4%
COc1cc(NC(=O)c2ccccc2-c2ccccc2)cc(OC)c1,-4.6%,14%,?,2%,-25%,0%,-13%,-24%
CC(=O)NCCN1C(=O)C2C3c4ccccc4C(c4ccccc43)C2C1=O (stereo not given),6.1%,13%,0%,12%,-29%,-2%,5%,2%
Cc1cc(C)c2nc(SCC(=O)Nc3ccc(S(=O)(=O)N4CCCC4)cc3)c(C)cc2c1,-8.4%,18%,6%,-3%[3.69 µM],0%,10%,13µM*,-5%

# Next section
SMILES,Cruzain inh Det,Lassa entry inh,MARV entry inh,RE007 growth inh,StopGo reporter,SARS PLpro yeast,Cruzain inh noDet,NS1 inh
O=C(Nc1nnc(-c2ccccc2F)s1)Nc1ccccc1F,·,-4%[46.1 µM],?,3%,39%[activator],-1%,·,2%
Cc1ccccc1NC(=O)c1ccc(C)c(S(=O)(=O)NCc2cccnc2)c1,·,?,?,6%,19%,0%,·,5%
O=C(NCCNC(=O)c1ccccc1Br)c1cccnc1,·,18%,6%,5%,-9%,6%,·,-10%
CCCCN1CCC(=O)NC1=O,·,-3%[46.1 µM],-1%[46.1 µM],-3%,5%,·,·,·
COc1cc2ccccc2cc1-c1nnc(COc2ccccc2)o1,-9.7%,·,-2%,2%,-5%,14%,?,-19%
O=C(Nc1ccn(Cc2ccccc2)n1)c1cccc(F)c1,·,?,?,6%,-20%,0%,·,-5%
